CapD inh: Bacillus anthracis CapD inhibitors, primary screen, biochemical, fluorescence intensity. AID 492967, 2010. purified CapD enzyme, fluorescence intensity read-out; stronger effect = lower value; some hits fall short of the stated cut. z-score (concentration not given with the values). 0.23% of 140,000 active;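 active = z-score under -4 in either of two replicates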;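 note: stock transfer was 100 nL into about 40 µL; score is relative to mean and spread of the plate; one replicate is shown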
AID504770: growth inhibition of E. coli YBA685, primary screen, V. cholerae RctB inhibitors | E. coli YBA685 rctB-dependent plasmid, OD600 growth, 3 h; stronger effect = lower value | 0.27% of 130,000 active | z-score (test concentration not listed);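 active = z-score under -2 on both plates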;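 note: wells of about 30 µL received 100 nL stock; score is relative to mean and SD of the test wells; the first replicate is given; strong numbers were not always called active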
The depositor's hits bear a star; . = no result given.

SMILES	CapD inh	AID504770
CC(C)(C)S(=O)(=O)CC#N	-0.42	.
Cc1nnc(SCC(=O)NC2CCCCCC2)[nH]c1=O	.	-1.2
COc1ccc(-c2cnnn2-c2ccc(NC(=O)c3ccccc3C(F)(F)F)cc2)cc1OC	0.2	-0.2
Cc1ccc2c(c1)C(C(=O)O)=Cc1ccccc1O2	.	1.6
O=C(CCn1c(=S)oc2ccccc21)NN1CCOCC1	-0.065	-0.6
CN1CCN(CCNC(=O)C2c3ccccc3C(=O)N(C3CCCC3)C2c2cccs2)CC1 (configuration not stated)	-0.19	-0.4
O=C(CCN1C(=O)COc2ccccc21)NCc1ccccc1	2.3	-0.45
Cc1ccc(CNCC2CCCO2)cc1 (configuration not stated)	-1.1	-1.1
CCSc1cc(C)nc2ncnn12	-0.46	0.9
O=C(O)CN1C(=O)CCS(=O)(=O)c2ccccc21	18	0.7
CC1(C)CC(=O)C2=C(C1)OC(=O)CC2c1ccccc1 (configuration not stated)	0.075	1.6
O=S1(=O)CC=C(CBr)C1	-0.1	-1.6
c1ccc(CN2CCN(c3nnc(Cc4cccnc4)c4ccccc34)CC2)cc1	-0.16	0.05
O=C1Nc2ccccc2/C1=N\N1C(=O)C2C=CC=CC2C1=O (configuration not stated)	-2.4	-0.85
Cc1cc(C)nc(NC2=NCCN2C(=S)Nc2c(C)cccc2C)n1	-0.24	1.4
CC1CCCCN1C(=O)Cn1c(=O)oc2ccccc21 (configuration not stated)	-2	1.1
COc1ccc(Br)cc1CNC(=O)C1CCN(C(=O)N(C)C)CC1	-0.005	-0.05
CC12CCC(C(=O)N(c3ccc(Cl)cc3Cl)C1=O)C2(C)C (configuration not stated)	-0.28	.
CCCN(CCC)C(=O)Nc1cccc(F)c1	-0.37	-0.95
O=C(Nc1cccc(-c2cn3ccccc3n2)c1)c1cc2cc(Br)ccc2oc1=O	0.2	.
Cc1noc(COc2ccccc2OCC(O)CN2CCN(C)CC2)n1 (configuration not stated)	0.37	-0.65
CCCCn1c(CNC(=O)c2cccs2)nnc1SCC(=O)Nc1sc2c(c1C(=O)OCC)CCCC2	-1.3	.
CN1/C(=C/P(=O)(N(C)C)N(C)C)C(C)(C)c2ccccc21	.	1.6
CC1CCCC(C)N1CCCNc1ccc2nnc(-c3ccccc3)n2n1 (configuration not stated)	4.9	-0.45
COc1ccc(C(=O)NCC(=O)NCCOC(=O)c2ccccc2F)cc1	0.17	.
O=c1cc(CSc2ccc(Cl)cc2)[nH]c(=S)[nH]1	.	-0.75
COC(=O)c1ccccc1NC(=O)CSc1ncn[nH]1	.	-2.3
Nc1cccc(-c2ncon2)c1	-0.61	-1.1
Cc1n[nH]c(C)c1N	0.14	-0.45
COc1cc(CN2CCN3CCCC3C2C2CCCCC2)cc(OC)c1 (configuration not stated)	-0.11	0.05

Six successive compounds out of the list so far, for reference:
SMILES	CapD inh	AID504770
COc1ccc(Br)cc1CNC(=O)C1CCN(C(=O)N(C)C)CC1	-0.005	-0.05
CC12CCC(C(=O)N(c3ccc(Cl)cc3Cl)C1=O)C2(C)C (configuration not stated)	-0.28	.
CCCN(CCC)C(=O)Nc1cccc(F)c1	-0.37	-0.95
O=C(Nc1cccc(-c2cn3ccccc3n2)c1)c1cc2cc(Br)ccc2oc1=O	0.2	.
Cc1noc(COc2ccccc2OCC(O)CN2CCN(C)CC2)n1 (configuration not stated)	0.37	-0.65
CCCCn1c(CNC(=O)c2cccs2)nnc1SCC(=O)Nc1sc2c(c1C(=O)OCC)CCCC2	-1.3	.

Next part.
SMILES	CapD inh	AID504770
O=C(Nc1ccc(N2CCN(Cc3ccccc3)CC2)cc1)C(Cl)Cl	-1	.
Cc1nc(-c2n[nH]c(=S)o2)cs1	0.64	-0.25
COc1cc(C(F)(F)F)nc2cc(C(C)(C)C)nn12	1.5	.
COc1cc(/C=c2\sc3nc4ccccc4n3c2=O)ccc1Oc1nc(N2CCOCC2)nc(N2CCOCC2)n1	0	.
COc1ccc(CCNC(=O)c2ccc(Cl)cc2)cc1OC	-0.025	.
COC(=O)c1ccccc1S(=O)(=O)N1CCC(C(=O)OCC(=O)Nc2ccccc2F)CC1	.	-0.45
O=C(CSc1nc2[nH]ncc2c(=O)n1-c1ccccc1)Nc1ccc(-c2nc3ccccc3o2)cc1	17	.
Cc1cc(C(=O)Nc2cccc(C(F)(F)F)c2)on1	-2.1	1.1
CC(C)Cc1cc(C(=O)Nc2cccc(Cl)c2)no1	-0.11	-0.6
COc1nc(-c2ccccc2)cc(-c2ccc(C)cc2)n1	0.41	2.5
CC(=NCCO)c1c(-c2ccccc2)[nH]n(-c2nc3ccccc3s2)c1=O	3	-0.65
Cc1nn(C(=O)c2c(Cl)cccc2Cl)c(C)c1Cc1c(Cl)cccc1Cl	0.12	.
Cc1cccc(NC(=O)CSC2=NC(=O)C(Cc3ccccc3)C(=O)N2)c1 (configuration not stated)	-0.045	.
Cc1sc(NC(=O)C2COc3ccccc3O2)c(C(N)=O)c1C (configuration not stated)	.	0.75
CCOc1ccccc1OCC(=O)OCC1CC1	.	0.05
Cn1c(CSc2ccnc3cc(Cl)ccc23)nnc1SCC(=O)c1ccc(Cl)s1	0.23	-0.9
O=c1c(C=NCC2CCCO2)c(CSc2ccc(Cl)cc2)[nH]n1-c1nc2ccccc2s1 (configuration not stated)	-0.49	.
O=c1c2ccc(N/N=C/c3c4ccccc4cc4ccccc34)c3cccc(c32)c2nc3ccccc3n12	-0.14	.
O=C(c1ccc(Cl)c(S(=O)(=O)N2CCCC2)c1)N1CCc2ccccc21	.	-0.5
CCCn1c(CCCNC(C)=O)nc2ccccc21	-0.79	0.3
N#Cc1c(NC(=O)c2cccnc2Cl)sc2c1CCCCC2	-0.66	.
Cc1cccc2c(=O)cc(C(F)(F)F)[nH]c12	12	.
C=CCC(C)(NCc1ccccc1)c1cccs1 (configuration not stated)	-0.18	-0.8
CNC(=S)Nc1ccccc1	0.87	0
Nc1c(C(=O)Nc2nccs2)sc2nc3c(c(-c4ccco4)c12)CCC3	-0.62	.
O=C(N/N=C/c1ccco1)C1CC12CCC2 (configuration not stated)	-0.085	-0.9
O=c1cc(CSc2nc3ccccc3s2)c2ccccc2[nH]1	0.48	0.15
NC(=O)COc1ccc2c(c1)OCO2	.	-0.4
CCOc1ccc2c(c1)sc1nc(=O)n(-c3ccccc3)c(=O)n12	0.96	0.5
O=C(NCc1ccccc1)c1cc(I)ccc1O	.	0
O=C(CCC(=O)N1CCSc2ccccc21)NCc1ccccc1	0.09	1.3
CN(C(=O)c1ccc(-c2nc3ccccc3s2)s1)c1ccccc1	0.47	-0.85
O=C(OCC(=O)N1CCCc2ccccc21)c1ccccc1	-0.3	-0.6
CNC(=O)CN(c1cccc(F)c1)S(C)(=O)=O	-0.1	1.5
CCN(c1ccccc1)S(=O)(=O)c1ccc2[nH]cc(C(=O)N(Cc3ccco3)CC3CCCO3)c(=O)c2c1 (configuration not stated)	2	.
CN(c1ccccc1)N1C(=O)c2cccc3cccc(c23)C1=O	.	-0.15
COC(=O)c1ccccc1Cc1nc(=O)c2ccccc2n1C	0.51	-1
COc1ccc(CCn2c(C)cc(C(=O)COC(=O)c3ccco3)c2C)cc1	.	0.1
CCCNC(=O)c1[nH]c2cc(OC)ccc2c1Sc1ccccc1	-0.08	0.25
CCCS(=O)(=O)c1c(S(=O)(=O)CCC)c2cc(CC)ccn2c1C(=O)OC	13	-0.95
Cc1cccc(C)c1-n1nnnc1SCC(=O)Nc1ccc2c(c1)OCO2	-0.095	0.45
COc1ccc(C2C(C#N)=C(N)OC3=C2C(=O)CC(c2ccc(Cl)cc2)C3)cc1 (configuration not stated)	0.005	.
COc1ccc2nc(/N=C(\N)NC(=O)N3c4ccccc4Sc4ccccc43)nc(C)c2c1	-1.3	-1.8
CC(C)NC(=O)c1ccc(N(C)S(C)(=O)=O)cc1	.	-1.2
COc1cc(C)c(C(=O)O)c(OC)n1	-0.79	-0.5
COc1ccc2ccccc2c1C=Nc1ccc(C)cc1	-0.59	1.6
Cc1ccc(N(C)S(=O)(=O)c2ccc3c(c2)CCCC(=O)N3)cc1	0.86	-0.65
NC(=O)CS(=O)(=O)c1ccc(Cl)cc1	.	0.35
CC1CC(C(F)(F)F)n2ncc(C(=O)O)c2N1 (configuration not stated)	.	0.15
CC1=C(C)C(=O)C(NCc2ccco2)=CC1=O	.	-1.1
Cc1nc2sc(C#N)c(N)c2c(C)c1CC(=O)c1ccc(Br)cc1	2.9	.
Clc1ccc(-c2nnc(C3CCC(c4ccccc4)CC3)o2)cc1 (configuration not stated)	-0.005	-0.05
CSc1ccc(S(=O)(=O)NCCN2CCOCC2)cc1	0.22	0.25
CCCCCCCCCCC[C@@H](C[C@H]1OC(=O)[C@H]1CCCCCC)OC(=O)[C@@H](CC(C)C)NC=O	.	0.15
CC1=C(C(=O)OCc2ccccc2)C(c2ccc(O)c([N+](=O)[O-])c2)C2=C(CC(c3ccccc3)CC2=O)N1 (configuration not stated)	-1.2	.
CCCc1cc2c(=O)c(-c3ccc4c(c3)OCCO4)coc2cc1O	0.25	0.3
CCn1c(C(=O)NCc2ccc(Cl)cc2)cc2sccc21	-0.38	0.55
CCc1cc2c(cc1C(=O)CCN1CCOCC1)OCCO2	0.43	-0.3
CC(C)(C)c1ccc(S(=O)(=O)Nc2ccc3oc4c(c3c2)CCCC4)cc1	0.095	.
O=C(Cc1cn2ccsc2n1)OCc1ccc(Cl)c(Cl)c1	.	0.9

(listing goes on)
SMILES	CapD inh	AID504770
Cc1cccc(OCCn2c(C3CCCO3)nc3ccccc32)c1 (configuration not stated)	-0.025	-1.4
CCOc1ccc(C(=S)N2CCCC2)cc1	-1.5	2.3
COc1ccc(Nc2cc(C(=O)NCCCN3CCOCC3)c3ccccc3n2)c(OC)c1	-0.27	-0.95
COc1cccc(N2C(=O)NC(=O)C(CCc3ccncc3)(CCc3ccncc3)C2=O)c1	0.045	-0.75
O=C(NCCC1=CCCCC1)c1sc2ccccc2c1Cl	-0.26	-0.55
Fc1cccc(C2Nc3cccc4cccc(c34)N2)c1	38	.
Cc1ccccc1CS/C(Nc1ccccc1)=C(\C#N)C(=O)Nc1ccccc1	-0.45	.
Cc1ccccc1CSCCC(=O)NCc1ccccc1	.	-0.3
COc1cccc(Cn2nnc3c(=O)[nH]c(C4CCN(C(=O)c5ccccc5)CC4)nc32)c1	0.83	-0.65
COc1ccc(CN(C(=O)Nc2ccc(OC)cc2)C2CCN(C(C)=O)CC2)cc1	0.48	-0.65
Cc1nc2c(ccc3nc(NC(=O)c4ccc(S(=O)(=O)N5CC(C)OC(C)C5)cc4)sc32)s1 (configuration not stated)	1.5	.
COC(=O)c1cc(Oc2ncnc3scc(-c4ccccc4)c23)cc(C(=O)OC)c1	-0.055	.
CC(C)CCNC(=O)Cn1c(SCc2cccc(F)c2)nc2ccncc21	-0.17	-0.2
C=CCNc1ncnc2c1sc1nc(N3CCOCC3)c3c(c12)CC(C)(C)OC3	5.3	.
O=C(COc1ccc2c(=O)c(-c3ccccc3)coc2c1)OC1CCCCC1	1.3	0.1

Some of these compounds in order of number of heavy atoms, high to low.
SMILES	CapD inh	AID504770
COc1ccc(CN(C(=O)Nc2ccc(OC)cc2)C2CCN(C(C)=O)CC2)cc1	0.48	-0.65
C=CCNc1ncnc2c1sc1nc(N3CCOCC3)c3c(c12)CC(C)(C)OC3	5.3	.
Cc1ccccc1CSCCC(=O)NCc1ccccc1	.	-0.3

(further entries)
SMILES	CapD inh	AID504770
O=C(Oc1cccc2cccnc12)c1cccs1	-0.075	-0.15
O=[N+]([O-])c1cc(S(=O)(=O)O)cc2c1-c1c(cc(S(=O)(=O)O)cc1[N+](=O)[O-])C2	-0.17	.
Cc1noc(C)c1CC(C#N)(Cc1c(C)noc1C)c1nc(-c2ccc(Cl)cc2Cl)cs1	.	-0.35
O=C(CSc1ncn(-c2ccccc2)n1)N1CCc2ccccc21	0.045	-0.5
Cc1ccc(/C(C#N)=C/c2cccc([N+](=O)[O-])c2)cc1	-0.88	.
CCc1ccc(-c2nc(CSCC(=O)NCc3ccccc3)c(C)o2)cc1	0.24	-0.5
NNC(=O)c1cncn1-c1ccccc1	.	-0.6
O=C(CSc1nc2ccc(Br)cc2c2nc3ccccc3n12)NCC1CCCO1 (configuration not stated)	-0.76	.
COc1ccc(OC)c(S(=O)(=O)NC2CCCC(C)C2C)c1 (configuration not stated)	-0.27	1.1
O=C(COC(=O)c1ccccc1N1C(=O)C2C3C=CC(C3)C2C1=O)c1ccccc1 (configuration not stated)	-0.62	.
NC(=S)N/N=C/c1coc2ccccc2c1=O	0.14	-0.9
COc1ccc(C2Nc3ccccc3O2)cc1 (configuration not stated)	-0.45	-1.4
CCN1CCN(c2ccc(NC(=O)c3cccc(Br)c3)cc2)CC1	0.14	1.7
Cc1ccc(NC(=O)CCCn2c(=S)[nH]c3ccsc3c2=O)cc1C	-0.65	-0.15
COC(=O)Cc1[nH]nc2c1C1(CCOC1C)C(C#N)=C(N)O2 (configuration not stated)	1.4	1.3

One compound at a time (already shown).
O=C(CCC(=O)N1CCSc2ccccc21)NCc1ccccc1 in the list: CapD inh: 0.09; AID504770: 1.3
CCCc1cc2c(=O)c(-c3ccc4c(c3)OCCO4)coc2cc1O in the list: CapD inh: 0.25; AID504770: 0.3
CCCCCCCCCCC[C@@H](C[C@H]1OC(=O)[C@H]1CCCCCC)OC(=O)[C@@H](CC(C)C)NC=O in the list: CapD inh: .; AID504770: 0.15

Retrieved one by one from the entries so far:
SMILES	CapD inh	AID504770
COC(=O)Cc1[nH]nc2c1C1(CCOC1C)C(C#N)=C(N)O2 (configuration not stated)	1.4	1.3
CCN1CCN(c2ccc(NC(=O)c3cccc(Br)c3)cc2)CC1	0.14	1.7
O=C(COC(=O)c1ccccc1N1C(=O)C2C3C=CC(C3)C2C1=O)c1ccccc1 (configuration not stated)	-0.62	.
NNC(=O)c1cncn1-c1ccccc1	.	-0.6
O=[N+]([O-])c1cc(S(=O)(=O)O)cc2c1-c1c(cc(S(=O)(=O)O)cc1[N+](=O)[O-])C2	-0.17	.
Cc1noc(C)c1CC(C#N)(Cc1c(C)noc1C)c1nc(-c2ccc(Cl)cc2Cl)cs1	.	-0.35
NC(=S)N/N=C/c1coc2ccccc2c1=O	0.14	-0.9

Assay outcomes (PubChem BioAssay)

Not all compounds are listed; count on the stated rates, not on these rows.
